# Screens: PubChem BioAssay, National Center for Advancing Translational Sciences (NCATS)
# Cruzain Triton: qHTS Assay for Promiscuous and Specific Inhibitors of Cruzain (with detergent); 200,000 tested, 0.43% active; purified cruzain, Z-FR-AMC fluorescence, 0.01% Triton; Potency, µM, for the others: max response, negative = inhibition, most hits filed as inhibitors; Cruzipain (Trypanosoma cruzi), P25779; active means well fitted curve in the direction sought with a large enough effect; inconclusive means small, poorly fitted or top-dose-only effect, or another doubt; inactive means no such curve, though single readings can be large; an effect the other way counts as inactive or inconclusive;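 further: plate controls were neutral wells for no effect and buffer without enzyme for full effect; nearly all actives have a fitted effect of over 40% in size; top concentration of the series not given in the record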
# Target sequence (P25779 123-467 limits assumed): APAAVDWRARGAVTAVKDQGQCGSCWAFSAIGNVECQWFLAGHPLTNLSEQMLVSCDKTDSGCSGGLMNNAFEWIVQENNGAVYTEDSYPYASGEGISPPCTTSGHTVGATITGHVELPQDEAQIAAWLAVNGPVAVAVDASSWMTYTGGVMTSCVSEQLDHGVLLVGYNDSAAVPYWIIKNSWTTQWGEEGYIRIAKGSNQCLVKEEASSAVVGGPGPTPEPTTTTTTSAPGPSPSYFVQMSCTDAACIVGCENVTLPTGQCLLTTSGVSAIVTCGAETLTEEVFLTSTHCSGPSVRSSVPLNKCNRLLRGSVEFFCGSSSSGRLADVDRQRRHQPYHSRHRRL
#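 Detergent-containing run (0.01% Triton X-100) in acetate buffer pH 5.5 with 5 mM DTT: enzyme at 1.5 nM final, 15 min compound preincubation at room temperature, then 2 uM Z-FR-AMC substrate. Activity taken as 60 s fluorescence increase at 360/450 nm.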
# Marburg entry inh: qHTS for inhibitors of binding or entry into cells for Marburg Virus; 300,000 tested, 1.8% active; Marburg virus pseudotyped entry inhibition, cell reporter; control for the full effect not named in the record; about a third of the inactives were read at about 46 µM; AID 540276, 2011; Potency, µM (doses to about 37.8 µM), inactives show top-dose activity change, negative = inhibition, actives largely listed as inhibitors; active = well fitted inhibition curve with a large enough effect; inconclusive = small, poorly fitted or top-dose-only effect, or effect the other way; inactive = flat fitted curve, though single readings scatter; tested in HEK293 cells; about a fifth of its hits are not listed in these tables; further: on the % scale 0 is the no-effect control and ±100 the full control effect; luciferase read-out
# StopGo reporter: High Throughput Screening for Foot and Mouth Disease Virus Antivirals | human cells with a luciferase reporter of 2A StopGo recoding; control for the full effect not named in the record | Potency, µM (top dose mostly 57.9 µM), for inactives: top-dose signal change, negative = less light | 410,000 tested, 1.2% active | AID 1159524, 2015; active = well fitted falling curve with a large enough effect; inconclusive = small, poorly fitted or top-dose-only effect; inactive = no such curve, though single readings can be large or run the other way; tested in HEK293T cells; further: on the % scale 0 is the no-effect control and ±100 the full control effect; nearly all actives have a fitted effect of over 45% in size; luciferase light after 4 h
# LASV entry inh: qHTS for Inhibitors of binding or entry into cells for Lassa Virus; Lassa virus pseudotype entry inhibition, cell reporter; control for the full effect not named in the record; Potency, µM (titrated, usually from 37.9 µM), without a hit: top-dose activity change, negative = inhibition, usual class: inhibitors; 300,000 tested, 1.2% active; active means well fitted inhibition curve with a large enough effect; inconclusive means small, poorly fitted or top-dose-only effect, or effect the other way; inactive means flat fitted curve, though single readings scatter; tested in HEK293 cells; further: on the % scale 0 is the no-effect control and ±100 the full control effect; nearly all actives have a fitted effect of over 50% in size; luciferase read-out
# Cruzain noTriton: qHTS Assay for Promiscuous and Specific Inhibitors of Cruzain (without detergent). purified cruzain, Z-FR-AMC fluorescence, no detergent. Cruzipain (Trypanosoma cruzi), P25779. Potency, µM, for the others: max response, negative = inhibition, hits mostly inhibitors. AID 1476, 2009. 200,000 tested, 2.3% active; active means well fitted curve in the direction sought with a large enough effect; inconclusive means small, poorly fitted or top-dose-only effect, or another doubt; inactive means no such curve, though single readings can be large; an effect the other way counts as inactive or inconclusive;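 further: plate controls were enzyme without inhibitor for no effect and buffer without enzyme for full effect; nearly all actives have a fitted effect of over 40% in size; top concentration of the series not given in the record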
#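 Purified cruzain at 1.5 nM, pre-incubated 15 min with compound at room temperature in 100 mM sodium acetate pH 5.5, 5 mM DTT, 0.00005% Triton X-100. Reaction started with 2 uM Z-FR-AMC; AMC fluorescence increase over 60 s gives rate.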
# NS1 function inh: qHTS Assay for Inhibitors of Influenza NS1 Protein Function | Potency, µM (doses to about 46.1 µM), inactives show at the highest dose activity, positive = more growth | 270,000 tested, 0.4% active | AID 2326, 2010 | S. cerevisiae slowed by influenza A NS1, growth recovery by OD600; further: actives are rising curves; nearly all actives have a fitted effect of over 50% in size
#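 Compounds were scored for reversing the slow growth caused by influenza A NS1 in S. cerevisiae, measured by optical density at 600 nm. Assay medium contained 2% galactose at pH 6.0; NS1-free yeast of the same strain were the positive control.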
# SARS PLpro yeast: qHTS of Yeast-based Assay for SARS-CoV PLP; S. cerevisiae expressing SARS-CoV PLpro, growth rescue; control for the full effect not named in the record; Potency, µM (highest dose often 32.9 µM), without a hit: top-dose activity, positive = growth rescue; 330,000 tested, 0.19% active; AID 485353, 2010; further: 0% is about no effect; nearly all actives have a fitted effect of over 55% in size; growth read by luminescence after 48 h
# RE007 growth inh: qHTS Assay for Inhibitors of the HIV-1 protein Vpr; S. pombe RE007 Vpr strain, BacTiter-Glo ATP luminescence, 24 h; control for the full effect not named in the record; Potency, µM (titrated, usually from 92.2 µM), inactives show at the top dose activity change, negative = less growth; 360,000 tested, 0.21% active; active = well fitted falling curve with a large enough effect; inconclusive = small, poorly fitted or top-dose-only effect; inactive = no such curve, though single readings can be large or run the other way;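 further: on the % scale 0 is the no-effect control and ±100 the full control effect; nearly all actives have a fitted effect of over 50% in size; the assay follows cell death caused by Vpr and the record does not say whether a fall means rescue or toxicity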
#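 Fission yeast strain RE007, carrying one chromosomally integrated HIV-1 vpr copy, was seeded at OD 0.01 in PMG+AL medium with 23 nL pinned compound. After 24 h at 30 °C and 99% humidity, viability was read by BacTiter-Glo luminescence.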
# * hit, by the source's call; ? = inconclusive; / = no result given; & = joins results of further samples; [ ] = dose if it differs, or a comment. Unless noted, the call rests on the fitted dose curve; in most records, active means well fitted rising curve with a large enough effect; inconclusive means small, poorly fitted or top-dose-only effect; inactive means no such curve, though single readings can be large or run the other way. Potency means the concentration at half of the fitted maximal effect.
SMILES,Cruzain Triton,Marburg entry inh,StopGo reporter,LASV entry inh,Cruzain noTriton,NS1 function inh,SARS PLpro yeast,RE007 growth inh
CN(C)S(=O)(=O)c1cccc(-c2nnc3n2CCCCC3)c1,/,/,-23%,/,/,-11%,1%,8%
COc1cc(/C=N/NC(=O)c2ccc(CN3C(=O)c4cccc5cccc3c45)cc2)cc(OC)c1O,/,/,-25%,/,/,13µM*,-2%,0%
CC(C)c1ccc(NC(=O)COC(=O)c2nn(C)c(=O)c3ccccc23)cc1,/,14%,-5%,5%,/,/,5%,-13%
CCc1ccc(C(=O)c2cn(Cc3ccc(F)cc3)c3cc(OC)c(OC)cc3c2=O)cc1,-9.0%,?,?,?,?,/,/,/
O=C(Nc1ccccc1C(F)(F)F)C1CCN(C(=O)c2cccs2)CC1,/,-4%[46.1 µM],-9%,-8%[46.1 µM],/,-1%,2%,12%
CCc1ccc(C2C(=O)c3ccccc3C2=O)cc1,/,?,10%,-18%[46.1 µM],/,/,/,3%
Cc1ccc(Nc2nnc(SCC(=O)c3ccc(O)cc3O)s2)cc1,/,?,29%,12%[46.1 µM],/,?,2%,-3%
CCCCn1c(N)c(N(CCOC)C(=O)c2cc(-c3ccc(F)cc3)nc3ccccc23)c(=O)[nH]c1=O,/,5%[46.1 µM],-4%,2%,/,/,0%,-11%
Cc1ccc2c(c1)C(O)(CC(=O)c1cccc(-n3cccc3)c1)C(=O)N2 (stereo not drawn),/,10%[46.1 µM],-4%,18%,/,/,-4%,11%
CCOC(=O)C(=CNc1ccc(Cl)cn1)C(=O)OCC,/,1%,3%,-28%,/,5%,1%,10%
Cc1ccc(NC(=O)CCNC(=O)c2ccco2)cc1Cl,/,-1%[46.1 µM],7%,-11%[46.1 µM],/,-6%,2%,2%
COc1ccccc1OCCC(=O)OCC(=O)Nc1ccc2c(c1)OCO2,/,30%,-12%,3%,/,/,-3%,8%
COc1cccc(CNCCc2c[nH]c3ccccc23)c1OCc1ccccc1,-0.6%,?,-26%,?,7%,2%,3%,6%
O=C(O)CSc1nnc(-c2cc3ccccc3o2)n1-c1ccccc1,-0.3%,14%[46.1 µM],-12%,7%,-5%,?,11%,11%
O=C(NNc1ccc([N+](=O)[O-])cn1)Nc1ccc(N=Nc2ccccc2)cc1,/,-7%,12%,2%,/,/,/,-10%
CC1(C)NC(=O)N(CCOCCSc2ccccc2)C1=O,1.8%,-1%,4%,?,7%,-3%,1%,14%
Cc1cc(=O)[nH]c(SCC(N)=O)c1C#N,2.8%,?,0%,-2%,-4%,2%,2%,18%
CC(=O)N1c2ccccc2N(Cc2ccc(C)cc2C)C(=O)C1(C)C,-2.1%,/,?,/,4%,-49%,-8%,4%
O=C(c1ccccc1)N1CCN(c2ncnc3c(-c4ccccc4)nsc23)CC1,/,/,-16%,/,/,-8%,-1%,10%
CN1C(=O)c2ccccc2Sc2ccc(NC(=O)NCc3ccc(Cl)cc3)cc21,-3.4%,?,?,-21%[46.1 µM],-6%,/,/,/
Cc1sc(NC(=O)Cn2nc(C(F)(F)F)cc2C)c(C(=O)OC(C)C)c1C,-6.4%,10%[46.1 µM],-27%,-1%,7%,0%,-14%,7%
COc1ccc(C2N=C(c3ccccc3)NC(c3ccccc3)=N2)cc1,-7.2%,?,-8%,-2%,30%,-1%,8%,0%
CCOC(=O)Nc1ccc2c(c1)N(C(=O)CN(CC)CC)c1ccccc1C=C2,8.5%,?,/,8%,6%,0%,1%,-6%
COc1ccc(CCNC(=O)CS(=O)Cc2nc(-c3cccs3)oc2C)cc1OC (stereo not drawn),-2.9%,4%&4%,6%,1%,7%,17%,-1%,5%
CCOCCCNC(=S)N(CCN(C)C)Cc1cc2cc3c(cc2[nH]c1=O)OCCO3,/,/,-18%,/,/,3%,-1%,20%
# Further compounds
SMILES,Cruzain Triton,Marburg entry inh,StopGo reporter,LASV entry inh,Cruzain noTriton,NS1 function inh,SARS PLpro yeast,RE007 growth inh
CCOc1ccc(-n2c(SCC)nc3c(c2=O)SCC3)cc1,3.7%,22%,-2%,10%,-1%,-1%,-6%,27%
Cn1cc(CCNCc2cn[nH]c2-c2ccc(-c3ccccc3)cc2)cn1,/,?,16%,?,/,5%,-2%,-18%
N#CCC(=O)Nc1ccc(C(=O)OCc2ccccc2Oc2ccccc2)cc1,/,?,4%,0%[46.1 µM],/,0%,-4%,18%
O=S(=O)(Nc1cccc(S(=O)(=O)N2CCCCC2)c1)c1ccccc1F,/,?,14%,3%,/,/,3%,35%
COc1cc(-c2nnc(CSc3nnc(N)s3)o2)cc(OC)c1OC,-5.0%,-10%,-23%,0%,9%,13%,-19%,-5%
CN(C(=O)Cc1c[nH]c2ccccc12)C(C(=O)Nc1ccc2c(c1)OCO2)c1ccccc1 (stereo not drawn),-6.8%,?,7%,?,-2%,10%,-14%,15%
COc1ccc(Cc2nnc(NC(=O)c3ccccc3[N+](=O)[O-])s2)cc1,/,/,6%,/,/,5%,0%,0%
O=C(NCC1CCCO1)c1ccc(NC(=O)c2ccc(Br)cc2)cc1 (stereo not drawn),/,?,-27%,-25%,/,/,/,2%
O=C(CSc1nc(=O)[nH]c2c1CCC2)Nc1cc(C(F)(F)F)ccc1Cl,-2.2%,/,-24%,0%[46.1 µM],-8%,/,/,/
CCOC(=O)c1cc(-c2ccccc2)sc1NC(=O)COC(=O)c1cccc(S(N)(=O)=O)c1,/,?,?,?,/,7%,0%,0%
Cc1noc(C)c1C(=O)N1CCOCC1,1.7%,?,0%,1%,-9%,7%,-3%,5%
COC(=O)c1ccccc1NC(=O)CN(C)S(=O)(=O)c1cc(C)ccc1OC,-0.2%,-12%[46.1 µM],-7%,7%,-4%,-36%,-5%,0%
CCCCOC(=O)c1ccc(Nc2nnc(-n3nc(C)cc3C)c3ccccc23)cc1,-7.8%,/,-10%,13%[46.1 µM],18%,/,/,/
Cc1cc(C)nc(Nc2ccccc2Cl)n1,/,?,26%,-5%,/,-15%,-8%,-1%
CCOc1ccc(NC(=O)CN(C)C(=O)c2sc3ccccc3c2Cl)cc1OCC,/,-12%,-6%,-5%[46.1 µM],/,/,-1%,0%
COc1ccc(O)c(CN2CCC(n3nccc3NC(=O)CCOc3ccccc3)CC2)c1,/,/,-22%,/,/,2%,1%,2%
O=C(NCc1cccc(C(F)(F)F)c1)c1cccc(S(=O)(=O)N2CCN(Cc3ccccc3)CC2)c1,/,?,-26%,?,/,3%,-2%,3%
COCC(COS(N)(=O)=O)Cc1ccccc1 (stereo not drawn),/,/,-9%,/,/,18%,12%,4%
Cc1noc(C)c1COC(=O)c1ccc(S(=O)(=O)NCc2ccco2)cc1,-4.7%,-3%[46.1 µM],?,-15%,-15%,-6%,-5%,7%
CCc1nc(NCCN)c(C#N)c2c1CSC(C)(C)C2,-0.6%,?,?,-5%,-18%,15%,-6%,22%
CCc1nc(SCC(=O)Nc2cc(OC)ccc2OC)c2c(C)c(C)sc2n1,/,-22%[46.1 µM],-8%,?,/,-6%,-1%,-6%
COc1ccc(N2CCN(c3ncnc4scc(-c5ccccc5)c34)CC2)cc1,/,?,?,-10%[46.1 µM],/,16%,-5%,-1%
Cc1ccc(Nc2nc3ccccc3[nH]2)nc1,?,?,?,?,?,-13%,19%,22%
CCCCn1c(SCC(=O)N(CC)C2CCS(=O)(=O)C2)nnc1C(CC)N(C)C (stereo not drawn),5.7%,?,3%,-4%,6%,-4%,1%,-7%
Cc1ccc2cccc(OCC(=O)N3CCc4ccccc43)c2n1,/,2%[46.1 µM],4%,2%,/,/,4%,-16%
# (continued)
SMILES,Cruzain Triton,Marburg entry inh,StopGo reporter,LASV entry inh,Cruzain noTriton,NS1 function inh,SARS PLpro yeast,RE007 growth inh
CC(NC1CCCC1)C(=O)Nc1ccccc1-c1ccccc1 (stereo not drawn),7.9%,?,6%,15%,-7%,0%,0%,-2%
CCOc1ccc(C(=O)NCCC2=CCCCC2)cc1OCC,/,?,-7%,-28%[46.1 µM],/,-5%,-1%,-1%
COC(=O)/C=C/c1cccc([C@H]2[C@@H]3C=CC[C@@H](C)[C@@H]3C(=O)N2Cc2ccccc2)c1,2.2%,/,?,/,1%,/,-28%,6%
Cc1c(N(C)C(=O)C2CCCN2S(=O)(=O)c2ccccc2)c(=O)n(-c2ccccc2)n1C (stereo not drawn),5.8%,0%,/,17%,6%,-2%,1%,10%
O=C(OC1C2CCC1C1CN(CCc3ccccc3)CC12)c1ccccc1 (stereo not drawn),-2.0%,?,?,?,-2%,-3%,-1%,10%
CCc1c(CN2CCN(c3cccc(C)c3C)CC2)csc1C,-0.5%,/,-16%,8%[46.1 µM],-13%,/,/,/
CCN1CCN(S(=O)(=O)c2ccc(Cl)c(C(=O)N(CC(C)C)C3CCS(=O)(=O)C3)c2)CC1 (stereo not drawn),/,11%,-13%,1%,/,/,/,1%
NC(=O)NC(=O)COC(=O)c1cccnc1Nc1ccccc1F,/,/,5%,/,/,2%,0%,-13%
COc1ccc2c(C)c(CCC(=O)NCc3ccccc3OC)c(=O)oc2c1,-5.7%,-21%[46.1 µM],-6%,11%[46.1 µM],-4%,/,/,/
CCCNC(=O)Nc1cc(OCC)c(N2CCOCC2)cc1OCC,0.9%,8%,19%,-14%,13%,?,14%,9%
Cc1onc(-c2ccccc2)c1C(=O)c1ccccc1,/,7%[46.1 µM],-4%,8%,/,-5%,0%,8%
COc1ccc(N2CC(NC(=O)c3c(F)cccc3Cl)CC2=O)cc1OC (stereo not drawn),-2.5%,/,2%,?,2%,/,/,/
Cc1ccc(S(=O)(=O)NCC(=O)NCC(=O)OCC(=O)N2CC(=O)Nc3ccccc32)cc1C,/,13%,-3%,1%,/,/,-1%,-7%
Cc1ccc(CN2CCC(n3nccc3NC(=O)CCOc3ccccc3)CC2)o1,/,7%,-21%,?,/,-3%,-2%,-1%
